Vaccinia mCherry = qHTS for Stage-Specific Inhibitors of Vaccinia Orthopoxvirus: mCherry Reporter Primary qHTS | 310,000 tested, 0.63% active | Potency, µM (highest dose often 36.5 µM), inactives show at the top dose activity change, negative = inhibition, actives largely listed as inhibitors | Vaccinia virus mCherry reporter infection, fluorescence; about a quarter of the inactives have no number | AID 720579, 2013; active = well fitted inhibition curve with a large enough effect; inconclusive = small, poorly fitted or top-dose-only effect; inactive = no such curve, though single readings can be large or run the other way; tested in A549 cells; further: nearly all actives have a fitted effect of over 35% in size; inactives centre near -10
VACV Venus inh = qHTS for Stage-Specific Inhibitors of Vaccinia Orthopoxvirus: Venus Reporter Primary qHTS. Vaccinia virus Venus reporter expression, fluorescence. Potency, µM (series often up to 36.5 µM), for inactives: at the highest dose activity change, negative = inhibition, usual class: inhibitors. 330,000 tested, 0.46% active. AID 720580, 2013; active means well fitted inhibition curve with a large enough effect; inconclusive means small, poorly fitted or top-dose-only effect; inactive means no such curve, though single readings can be large or run the other way; tested in A549 cells; further: nearly all actives have a fitted effect of over 30% in size; inactives centre near -10
* marks the source's active call; other numbers are inactive results; i = inactive; ? = inconclusive; nt = no result given; & = joins results of further samples; [ ] = another dose, or the depositor's remark. On the % scale 0 is the no-effect control and ±100 the full control effect; potency means the concentration at half of the fitted maximal effect. The order is random, and some 0.82% of all compounds hit somewhere here.

SMILES	Vaccinia mCherry	VACV Venus inh
COc1cccc(C2CC(=O)C3=C(C2)Nc2ccccc2N(C(=O)CCC(=O)O)C3c2ccc(F)cc2)c1 (configuration not stated)	-6.3%	-3.3%
Cn1c(CCN2CCCCCC2)nc2cc(NC(=O)Nc3ccccc3)ccc21	-8.2%	-11.9%
O=C(NNS(=O)(=O)c1ccccc1)c1ccc(S(=O)(=O)N2CCCCC2)cc1	i	-17.3%
CCC(=O)N/C(N)=N/c1nc2ccccc2o1	-1.2%	-20.8%
Cc1ccc(Nc2ccc(C(=O)NCCc3ccccc3)cn2)cc1	i	-11.5%
CCCc1cc(C(=O)N2CCCC(Cc3ccccc3C)(C(=O)OCC)C2)no1 (configuration not stated)	-15.6%	-10.5%
CC1CCCC(C)N1C(=S)NCc1ccco1 (configuration not stated)	i[7.34 µM]	-10.9%[7.34 µM]
CCc1cccc(NC(=O)Cn2c(-c3ccccc3)cc(C(C)=O)c2C)c1	8.3%	-8.1%
Cc1ccc2nc(-c3ccc(Cl)s3)c(Nc3ccc4c(c3)OCCO4)n2c1	-9.8%	-13.0%
CCOC(=O)c1ccc(N2C(=O)C3CC=CCC3C2=O)cc1 (configuration not stated)	i	-4.6%
COC(=O)c1sccc1NC(=O)c1cc(-c2cc(C)ccc2C)nc2ccccc12	i	-10.1%
CC(C)CCCN1C(N(C)C)=NC[C@@H]1Cc1ccccc1	i	-9.6%
COc1cc(/C=C2/C(=O)NN(c3ccc(Cl)cc3)C2=O)cc(OC)c1O	i	1.9%
CCCCNC(=O)C(CC)(ONc1ccccc1C(F)(F)F)c1ccccc1OC (configuration not stated)	-22.2%	-11.9%
CC(=O)C1(c2ccccc2)CCNCC1	-10.5%	-12.0%
CC(C)(C)n1nc2c(c1NC(=O)c1ccc(Br)cc1)CS(=O)C2 (configuration not stated)	-7.0%	-18.3%
Cc1cc(C)c2c(-n3cccc3)c(NC(=O)OC(C)C)sc2n1	nt	?
CCC(C)C(NS(=O)(=O)c1ccc(C)cc1)C(=O)O (configuration not stated)	i	-11.2%
CC1Cc2cc(S(=O)(=O)N3CCN(c4cccc(Cl)c4)CC3)ccc2N1C(=O)C1CC1 (configuration not stated)	i	-13.2%
O=C(NCCO)c1scc2c1OCCO2	-2.6%	0.5%
CC1CCN(C(=O)c2ncn(Cc3ccccc3)c2C(=O)N2CCC(C)CC2)CC1	i	-4.9%
COC(=O)CCCC1=CC2=C(c3ccccc3)C(=O)C(C)(OC(=O)C3CCCC3)C(=O)C2=CN1c1ccccc1 (configuration not stated)	i	-13.3%
Cc1onc(-c2c(Cl)cccc2Cl)c1C(=O)NC1C(=O)N2C1SC(C)(C)C2C(=O)O (configuration not stated)	-6.2%&-0.3%	-6.1%&-5.0%
[O-][n+]1ccccc1SCc1ccccc1	i	0.1%
CCN1C(=O)C2(c3ccccc31)c1c(oc3ccc(F)cc3c1=O)C(=O)N2CCCOC (configuration not stated)	-2.8%	4.3%
CCOc1ccccc1C1C(C#N)=C(N)SC(N)=C1C#N	nt	-13.8%
CCOC(=O)C1(Cc2cccc(OC)c2)CCN(Cc2cc(OC)ccc2OC)CC1	?	-14.1%
O=C(CNc1cccc(S(=O)(=O)N2CCOCC2)c1)Nc1ccccc1F	-21.8%	-24.5%
COc1ccc(Br)cc1CNC(=O)CCCn1c(=O)c2cccn2c2cccnc21	i	-8.5%
COc1ccc(C)c(NC(=O)C2CC(=O)NC3=C2C(=O)CCC3)c1 (configuration not stated)	-11.2%	-11.8%
COc1ccc(C2=NN(CC(=O)NCc3ccccc3Cl)C(=O)CC2)cc1	-9.8%	-4.2%
O=C(COC(=O)c1cnc(Cl)c(Cl)c1)Nc1ccc(S(=O)(=O)N2CCCC2)cc1	i	-6.4%
Cc1ccccc1CN1C(=O)c2ccccc2Sc2ccc(C(=O)NC3CCCC3)cc21	-8.9%	-10.9%
OC1(c2cccnc2)CCN(Cc2ccc3c(c2)CN(Cc2ccsc2)CCO3)CC1	-13.3%	-15.6%
O=C(NCc1ccccc1)c1onc(CSc2ccccn2)c1C(=O)NCc1ccccc1	-7.4%	-18.6%
COc1ccc(NC(=O)CS(=O)CC(=O)Nc2ccc(F)cc2F)cc1 (configuration not stated)	-21.4%	-4.1%
COc1ccc(-c2nc(CS(=O)(=O)CC(=O)NCCCN3CCN(C)CC3)c(C)o2)cc1	-19.0%	-7.9%
CC(C)COC(=O)c1ccc(NC(=O)C2C3CCC(C3)C2C(=O)O)cc1 (configuration not stated)	nt	-13.8%
CCN(CC(=O)NC1CCS(=O)(=O)C1)S(=O)(=O)c1ccc(Cl)cc1C(F)(F)F (configuration not stated)	i	-11.3%
COc1ccc2[nH]c3c(c2c1)CCC/C3=N\N	?	-12.7%
COc1ccc(C(=O)c2sc(Nc3ccccc3)c(C(=O)Nc3ccc(OC)c(OC)c3)c2N)cc1	-29.9%	-22.4%
COC(=O)N(C)C[C@@H]1OCc2cnnn2CCCC(=O)N([C@H](C)CO)C[C@@H]1C	i	-4.5%
Cc1cc(NC(=O)CCC(=O)N(c2ccccc2)C(C(=O)NC2CCCCC2)c2cccs2)no1 (configuration not stated)	nt	0.6%
CCCCc1ccc(C(=O)COC(=O)c2ccc3nc(C)c(C)nc3c2)cc1	21.0%	13.2%
CCCN(C(=O)c1ccc2c(=O)n3c(nc2c1)CCCCC3)c1cccc(Cl)c1	i	-21.3%
CN1CCOc2c1cnn(CCO)c2=O	4.3%	4.9%
COc1cc(OC)c(C(=O)O/N=C(\N)c2cccc(C)c2)cc1OC	-10.7%	-23.3%
O=C(COC(=O)c1ccccc1)Nc1ccccc1Br	i	12.0%
COc1ccccc1C/C(N)=N/OC(=O)c1cccs1	-2.8%	-3.9%
Cc1c(C(=O)OCC(=O)Nc2ccccc2OC(F)F)cccc1[N+](=O)[O-]	-15.6%	-11.6%
c1ccc(CSc2ncnc3c2oc2ccccc23)cc1	-19.5%	-4.9%
CCOC(=O)c1ccccc1NC(=O)CSC(C)C(=O)Nc1cc(C)on1 (configuration not stated)	-12.2%	0.1%
CCN(CC)C(=O)C1CCN(c2cc(C)nc3c(-c4ccc(OC)c(OC)c4)c(C)nn23)CC1	-11.3%	-5.6%
COc1cccc(NS(=O)(=O)NC(=O)c2cn(C)c3ccccc23)c1	-9.9%[7.34 µM]	-1.5%[7.34 µM]
O=C(Nc1ccnn1C1CCN(C(=O)c2ccc(F)c(Cl)c2)CC1)C1CC1	?	-27.1%
Cc1noc(C)c1S(=O)(=O)N1CCN(c2ccccc2Cl)CC1	-16.5%	-7.8%
CCc1cc(C(=O)NN2C(=O)NC3(CCCCC3)C2=O)sc1C	-7.3%	-28.7%
Cc1cc(C(=O)Nc2ccccc2)c(C)o1	i	-6.8%
COc1ccc(NC(=O)CSc2nc3c([nH]c4ccccc43)c(=O)n2C)cc1	-13.0%&-2.5%	-0.6%&5.8%
Nc1nonc1C(=O)NCCNS(=O)(=O)c1ccc(F)cc1	-10.5%	-11.2%

Part of the list above in order of molecular weight, largest number first.
SMILES	Vaccinia mCherry	VACV Venus inh
CCCCNC(=O)C(CC)(ONc1ccccc1C(F)(F)F)c1ccccc1OC (configuration not stated)	-22.2%	-11.9%
CC(C)(C)n1nc2c(c1NC(=O)c1ccc(Br)cc1)CS(=O)C2 (configuration not stated)	-7.0%	-18.3%
CC(=O)C1(c2ccccc2)CCNCC1	-10.5%	-12.0%

Looked up by structure from above:
SMILES	Vaccinia mCherry	VACV Venus inh
CCOC(=O)c1ccccc1NC(=O)CSC(C)C(=O)Nc1cc(C)on1 (configuration not stated)	-12.2%	0.1%
O=C(Nc1ccnn1C1CCN(C(=O)c2ccc(F)c(Cl)c2)CC1)C1CC1	?	-27.1%
COC(=O)N(C)C[C@@H]1OCc2cnnn2CCCC(=O)N([C@H](C)CO)C[C@@H]1C	i	-4.5%

Next compounds
SMILES	Vaccinia mCherry	VACV Venus inh
COc1ccc(C(=O)N2c3ccccc3CC2C)cc1OC (configuration not stated)	i	-8.5%
CN(C)S(=O)(=O)c1ccc(C(=O)NCC(C)(C)CN=C2NS(=O)(=O)c3ccccc32)cc1	-12.7%	-5.5%
CCOc1ccccc1NC(=O)CN(C)S(=O)(=O)c1ccc2nc(C)sc2c1	-17.4%	-14.3%
COc1ccc(N2CCN(C(CNS(=O)(=O)c3ccc4c(c3)OCCO4)c3ccco3)CC2)cc1 (configuration not stated)	-20.4%	-15.3%
Cc1nc2nc(SCC(=O)NCc3ccccc3)nn2c(C)c1Cc1ccccc1	-16.9%	-10.0%
Cc1ccc(S(=O)(=O)NCCCCCCNS(=O)(=O)c2ccc(C)cc2)cc1	-8.6%	-20.8%
CCOP(=O)(OCC)/C(=N/OC(=O)c1cccc([N+](=O)[O-])c1)C(N)=O	-5.3%	-10.1%
CC(C)c1c(O)c(-c2cc3c(c(C(C)C)c2O)CCC2C(C)(C)CCC[C@@]32C)cc2c1CCC1C(C)(C)CCC[C@@]21C (some centres not stated)	i	-9.1%
COc1ccc2cc3c(N)nn(C(=O)c4ccccc4[N+](=O)[O-])c3nc2c1	-3.2%	-21.9%
CCCCCn1nnc2c(=O)oc3ccccc3c21	i	-19.5%
COc1ccccc1C1(O)CCN(CC(=O)Nc2nc(-c3ccccc3)cs2)CC1	-19.7%	-10.0%
Cc1ccc(S(=O)c2ccc([N+](=O)[O-])c3nonc23)cc1 (configuration not stated)	?	49.4%[activator]
O=C(Nc1ccc2c(c1)OCCO2)c1ccc(Cl)c([N+](=O)[O-])c1	-14.9%	-2.6%
O=C(Nc1ccccc1N1CCCC1)c1cccc(F)c1	?	-7.6%
Nc1ncc([N+](=O)[O-])c(N2CCCCCC2)n1	i	0.0%
COC(=O)c1ccccc1S(=O)(=O)NCc1nc2nc(C)cc(C)n2n1	i	2.9%
NC(=O)C(c1ccc(Cl)cc1)c1ccc(Sc2ccc(Cl)cc2)nn1 (configuration not stated)	nt	?
CC(OC(=O)CCCN=C1NS(=O)(=O)c2ccccc21)C(=O)Nc1ccc(F)c(F)c1F (configuration not stated)	i	-15.4%
Cc1c(N2C(=O)CS/C2=N\N=C\c2ccc(Br)cc2)c(=O)n(-c2ccccc2)n1C	nt	-26.9%
Cn1c(=O)n(C)c2cc([N+](=O)[O-])c(N3CCN(S(=O)(=O)c4ccc(C(C)(C)C)cc4)CC3)cc21	?	-13.7%

Compound profiles, as listed above:
Profile of NC(=O)C(c1ccc(Cl)cc1)c1ccc(Sc2ccc(Cl)cc2)nn1 (configuration not stated) = Vaccinia mCherry = nt; VACV Venus inh = ?
Profile of CC(C)c1c(O)c(-c2cc3c(c(C(C)C)c2O)CCC2C(C)(C)CCC[C@@]32C)cc2c1CCC1C(C)(C)CCC[C@@]21C (some centres not stated) = Vaccinia mCherry = i; VACV Venus inh = -9.1%
Profile of COC(=O)c1ccccc1S(=O)(=O)NCc1nc2nc(C)cc(C)n2n1 = Vaccinia mCherry = i; VACV Venus inh = 2.9%

(list continues)
SMILES	Vaccinia mCherry	VACV Venus inh
Cc1ccc(S(=O)(=O)Oc2ccccc2/C=N/NC(N)=S)cc1	?	1.26µM*
COc1ccc(CC(=O)NCc2nnc(SCc3ccc(C)cc3)n2C)cc1	-6.4%	-8.6%
CC(C)OCCCNc1ncc2c(n1)CC(c1ccccc1)CC2=O (configuration not stated)	i	-3.8%
Cc1ccc(-n2nc3ccc(NC(=S)NC(=O)/C=C/c4ccco4)cc3n2)cc1	-10.0%	-8.2%
COc1cc(/C=N/NC(=O)Cn2nc([N+](=O)[O-])cc2C)cc(Br)c1OCc1ccccc1	?	?
O=c1[nH]c2ccccc2n1CCCN1CCCCC1	-5.0%	-10.4%
Cc1onc(-c2ccccc2)c1C(=O)NC(=S)Nc1sc2c(c1C#N)CCC(C)C2 (configuration not stated)	-2.4%	-15.6%
Cc1cccc(C)c1-n1c(C)nn(CC#N)c1=O	-6.8%	-13.1%
COc1cc(OC)c(OC)cc1CNCCc1ccc(F)cc1	i	-5.4%

6 neighbouring entries already listed, for reference:
SMILES	Vaccinia mCherry	VACV Venus inh
Cc1ccc(S(=O)c2ccc([N+](=O)[O-])c3nonc23)cc1 (configuration not stated)	?	49.4%[activator]
O=C(Nc1ccc2c(c1)OCCO2)c1ccc(Cl)c([N+](=O)[O-])c1	-14.9%	-2.6%
O=C(Nc1ccccc1N1CCCC1)c1cccc(F)c1	?	-7.6%
Nc1ncc([N+](=O)[O-])c(N2CCCCCC2)n1	i	0.0%
COC(=O)c1ccccc1S(=O)(=O)NCc1nc2nc(C)cc(C)n2n1	i	2.9%
NC(=O)C(c1ccc(Cl)cc1)c1ccc(Sc2ccc(Cl)cc2)nn1 (configuration not stated)	nt	?

Bioassay records as filed in PubChem.
